PMP22 txn: modulators of PMP22 gene transcription in S16 Schwann cells; S16 Pmp22-F2sN Schwann cells (luciferase reporters placed in the Pmp22 gene), FLuc/NLuc coincidence luminescence, 24 h; Potency, µM (series often up to 57.5 µM), without a hit: at the highest dose activity change, negative = inhibition, most hits filed as inhibitors; actives 2% (n = 43,000); active = clear falling dose curves in both reporters; inconclusive = both reporters move, but less clearly or upward; inactive = either reporter flat; the % is the NLuc reporter signal; further: on the % scale 0 is the no-effect control and ±100 the full control effect; some results filed as inactive show a strong effect at the top dose
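Reporter cells (S16 Pmp22-F2sN, 500–1,000 per well) exposed to compounds for 24 h, 37C, 5% CO2; lysis with FLuc read after 10 min, then Stop&Glo and NLuc read after 10 min.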
HTT prom inh: inhibitors of huntingtin promoter activity. actives 0.93% (n = 48,000). HEK293 HTT promoter firefly luciferase reporter (activity 0% = vehicle and -100% = no light), 24 h. Potency, µM (highest dose often 57.5 µM), without a hit: at the highest dose activity change, negative = inhibition, actives largely listed as inhibitors; active means well fitted inhibition curve with a large enough effect; inconclusive means small, poorly fitted or top-dose-only effect; inactive means no such curve, though single readings can be large or run the other way; further: nearly all actives have a fitted effect of over 50% in size
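Luminescence was read after Dual-Glo reagent and a 10 min room-temperature incubation. Values were normalized to vehicle (0% activity) and zero RLU (-100% activity). Reporter HEK293 cells had been exposed to compounds (up to 57.5 uM final) for 24 h.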
An asterisk follows results filed as active. Potency means the concentration at half of the fitted maximal effect.

Screening CCCCN1C[C@H](O)[C@@H](O)[C@H](O)[C@H]1CO returned HTT prom inh 3%.
`COc1ccc(CCn2c(=O)c3cccnc3n(CC(=O)Nc3c(C)cc(C)cc3C)c2=O)cc1OC` gave PMP22 txn 4% and HTT prom inh 9%.
For CCCN1CCN(CCCNC(=O)c2ccc3nc(Cc4ccccc4)oc3c2)CC1 the results were PMP22 txn -28% and HTT prom inh -17%.
Screening COc1cccc(C(=O)Nc2nc(-c3nnn(-c4cc(C)ccc4C)c3C)ns2)c1 returned PMP22 txn -19% and HTT prom inh inconclusive.
`COc1ccc(-c2nc3sc(CCNC(=O)C(=O)Nc4c(C)cccc4C)c(C)n3n2)cc1` gave PMP22 txn -15% and HTT prom inh -8%.
Screening O=C(CN1C(=O)COc2ccc(S(=O)(=O)N3CCOCC3)cc21)N1CCN(c2cccc(Cl)c2)CC1 returned PMP22 txn -28% and HTT prom inh -10%.
COc1cc2c(=O)n(CCC(=O)NCC3CCCO3)c(=O)n(CC(=O)Nc3ccccc3C)c2cc1OC (configuration not stated) was read as PMP22 txn -17% and HTT prom inh -14%.
COc1ccc(-c2noc(CSc3nnc(-c4ccncc4)n3-c3ccc(C)cc3)n2)cc1OC was read as PMP22 txn inconclusive and HTT prom inh -3%.
Cn1nnnc1SCCNCc1cc(Br)ccc1OCc1ccccc1Cl was read as PMP22 txn 16µM* and HTT prom inh 28µM*.
For Cc1ccc(C)c(N2CCN(C(=O)CS(=O)(=O)c3cccc4nsnc34)CC2)c1 the results were PMP22 txn -30% and HTT prom inh inconclusive.
Screening COc1ccc(CCNC(=O)Cn2nc(C)n3c(cc4occc43)c2=O)cc1OC returned PMP22 txn -2% and HTT prom inh -8%.
For COc1ccccc1NC(=O)Cn1nnc(C(=O)Nc2ccccc2Br)c1N the results were PMP22 txn -8% and HTT prom inh -9%.

Already shown: an excerpt of the list.
`COc1ccc(-c2nc3sc(CCNC(=O)C(=O)Nc4c(C)cccc4C)c(C)n3n2)cc1` gave PMP22 txn -15% and HTT prom inh -8%.
Screening O=C(CN1C(=O)COc2ccc(S(=O)(=O)N3CCOCC3)cc21)N1CCN(c2cccc(Cl)c2)CC1 returned PMP22 txn -28% and HTT prom inh -10%.
COc1cc2c(=O)n(CCC(=O)NCC3CCCO3)c(=O)n(CC(=O)Nc3ccccc3C)c2cc1OC (configuration not stated) was read as PMP22 txn -17% and HTT prom inh -14%.
COc1ccc(-c2noc(CSc3nnc(-c4ccncc4)n3-c3ccc(C)cc3)n2)cc1OC was read as PMP22 txn inconclusive and HTT prom inh -3%.
Cn1nnnc1SCCNCc1cc(Br)ccc1OCc1ccccc1Cl was read as PMP22 txn 16µM* and HTT prom inh 28µM*.

Returning to the listing, starting 4 compounds before the break.
Cn1nnnc1SCCNCc1cc(Br)ccc1OCc1ccccc1Cl was read as PMP22 txn 16µM* and HTT prom inh 28µM*.
For Cc1ccc(C)c(N2CCN(C(=O)CS(=O)(=O)c3cccc4nsnc34)CC2)c1 the results were PMP22 txn -30% and HTT prom inh inconclusive.
Screening COc1ccc(CCNC(=O)Cn2nc(C)n3c(cc4occc43)c2=O)cc1OC returned PMP22 txn -2% and HTT prom inh -8%.
For COc1ccccc1NC(=O)Cn1nnc(C(=O)Nc2ccccc2Br)c1N the results were PMP22 txn -8% and HTT prom inh -9%.
`CCCCCOC(=O)CSc1nc2sc3c(c2c(=O)n1-c1ccccc1)CC(C)(CC)OC3` (configuration not stated) gave PMP22 txn -15% and HTT prom inh -4%.
For O=C(OCc1cc(=O)n2nc(C3CC3)sc2n1)c1ccc(NC(=O)c2ccccc2F)cc1 the results were PMP22 txn -1% and HTT prom inh -6%.
Screening CC(C)NC(=O)C1CCCN(c2ncnc3c2nc2n3CCCCC2)C1 (configuration not stated) returned PMP22 txn -8% and HTT prom inh -72%.
CCc1ccccc1NC(=O)Cn1c(=O)n(CC2CCC(C(=O)NCCc3ccccc3)CC2)c(=O)c2ccccc21 (configuration not stated) was read as PMP22 txn inconclusive and HTT prom inh -7%.
For CCc1ccc(NC(=O)c2ccc(F)c(S(=O)(=O)NCc3ccc(Cl)c(Cl)c3)c2)cc1 the results were PMP22 txn inconclusive and HTT prom inh inconclusive.
`CCN1CCN(CCCNC(=O)c2cc3c(=O)n(C)c4ccccc4c3s2)CC1` gave PMP22 txn inconclusive and HTT prom inh 0%.
`CCc1ccc(-n2nc(C)c3c(C)cc(=O)n(CC(=O)Nc4ccc(F)cc4C)c32)cc1` gave PMP22 txn 5% and HTT prom inh -7%.
For O=c1oc2c3c(ccc2c2ccccc12)OCN(Cc1ccc(Cl)cc1)C3 the results were PMP22 txn inconclusive and HTT prom inh -12%.
CCCCOc1ccccc1NC(=O)CC1Sc2ccccc2NC1=O (configuration not stated) was read as PMP22 txn -9% and HTT prom inh inconclusive.
Screening Cc1ccc(S(=O)(=O)N(CC(=O)Nc2ccc(F)cc2F)Cc2ccc(F)cc2)cc1 returned PMP22 txn -42% and HTT prom inh -28%.
For Cc1cc(C)c(Nc2nc3ccccc3n3c(C)nnc23)c(C)c1 the results were PMP22 txn 3% and HTT prom inh -7%.
`CCOc1ccc(NC(=O)Cn2cnc3c(oc4ccccc43)c2=O)cc1` gave PMP22 txn 10% and HTT prom inh -6%.
`COc1ccc(-n2c(=O)[nH]c3cc(C(=O)NCCc4ccc(Cl)cc4)ccc3c2=O)cc1OC` gave PMP22 txn inconclusive and HTT prom inh inconclusive.
`Cc1ccc(NCc2cc3cc4c(cc3n(CC(=O)Nc3ccc(F)cc3F)c2=O)OCCO4)cc1` gave PMP22 txn inconclusive and HTT prom inh -23%.
`Cc1cc(C)cc(NS(=O)(=O)c2ccc3c(c2)OCC(C(=O)N2CCCC2)O3)c1` (configuration not stated) gave PMP22 txn -40% and HTT prom inh inconclusive.
Cc1cccc(N2CCN(C(=O)COCc3cc(-c4ccc5c(c4)OCO5)on3)CC2)c1C was read as PMP22 txn -2% and HTT prom inh -5%.
Screening Cc1ccc(-c2nc3ncccn3c2Nc2ccc3c(c2)OCCO3)cc1 returned PMP22 txn -10% and HTT prom inh 6%.
For Cc1ccc(CN2CCCn3nc(C(=O)NCCc4cccc(C)c4)cc3C2=O)cc1 the results were PMP22 txn 10% and HTT prom inh -36%.
COc1ccc(Cn2cc(C(=O)c3ccc(OC)cc3)c(=O)c3cc4c(cc32)OCCO4)cc1 was read as PMP22 txn -6% and HTT prom inh -1%.
Screening Cc1nn2c(-c3ccccc3)cc(-c3ccccc3)nc2c1-c1ccc(Cl)cc1 returned PMP22 txn 7% and HTT prom inh 3%.
`O=C1CC(c2ccccc2)Sc2ccccc2N1Cc1ccc(F)cc1` (configuration not stated) gave PMP22 txn inconclusive and HTT prom inh inconclusive.
For CCOCCCNC(=O)C(c1ccc(OC)cc1)N(Cc1ccc2c(c1)OCO2)C(=O)c1ccccc1O (configuration not stated) the results were PMP22 txn -4% and HTT prom inh -24%.
`CCN(Cc1ccccc1)C(=O)Cn1c(=O)oc2cc(S(=O)(=O)N3CCCCCC3)ccc21` gave PMP22 txn -9% and HTT prom inh -27%.
For CC1CCc2cc(F)cc3c(=O)c(C(=O)O)cn1c23 (configuration not stated) the results were HTT prom inh 6%.
COc1ccc(Cn2c(SCc3ccc(C(=O)NCc4ccccc4F)cc3)nc3cccnc32)cc1 was read as PMP22 txn -28% and HTT prom inh inconclusive.
`COc1ccc(C)cc1NC(=O)N1CCN(S(=O)(=O)c2ccc3c(ccn3C)c2)CC1` gave PMP22 txn -3% and HTT prom inh -26%.
`CCCCOc1c(Cl)cc(C(=O)N(Cc2ccc(C)o2)C2CCS(=O)(=O)C2)cc1Cl` (configuration not stated) gave PMP22 txn inconclusive and HTT prom inh inconclusive.
For CSc1ncc(Cl)c(C(=O)Nc2c(C(=O)c3ccc(C)c(F)c3)oc3ccccc23)n1 the results were PMP22 txn -7% and HTT prom inh -7%.
`CCc1ccc(-n2nc(CO)c(C(=O)NCc3cccs3)n2)cc1` gave PMP22 txn -3% and HTT prom inh 0%.
Screening Cn1c(=O)c2sccc2n2c(CCC(=O)N3CCN(c4ccccc4)CC3)nnc12 returned PMP22 txn -23% and HTT prom inh 1%.
COc1ccc(CCNC(=O)c2cc3c(=O)n4ccccc4nc3n2C)cc1 was read as PMP22 txn 7% and HTT prom inh 7%.
For CCc1cccc(NC(=O)CN2CCCN(Cc3cccc(C)c3)S2(=O)=O)c1 the results were PMP22 txn -34% and HTT prom inh -11%.
`CC(C)CCSc1nnc2n(-c3ccccc3)c(=O)c3c4c(sc3n12)CC(C)CC4` (configuration not stated) gave PMP22 txn -24% and HTT prom inh -12%.
`CCC(=O)N1CCc2cc(Br)cc(S(=O)(=O)CCC(=O)NCCc3ccccc3Cl)c21` gave PMP22 txn 4% and HTT prom inh -4%.
`Cc1cc(=O)n2nc(N3CCC(C(=O)NCCCOC(C)C)CC3)sc2n1` gave PMP22 txn 3% and HTT prom inh -13%.
COC(=O)c1ccccc1NC(=O)NCc1ccc2c(c1)CCN2C(=O)c1ccccc1 was read as PMP22 txn inconclusive and HTT prom inh -10%.
For Cn1nc(C(=O)NCc2ccccc2Cl)c2c1-c1ccccc1S(=O)(=O)C2 the results were PMP22 txn inconclusive and HTT prom inh -28%.
For CCc1cccc(-n2c(=O)c3cccnc3n2CC(=O)Nc2c(C)cc(C)cc2C)c1 the results were PMP22 txn -10% and HTT prom inh -7%.
Screening O=C(Nc1c(C(=O)Nc2cccc(C(F)(F)F)c2)oc2ccccc12)c1cc(=O)c2ccccc2o1 returned PMP22 txn 2% and HTT prom inh -16%.
`Cc1cccc(CCNC(=O)CCc2c(C)nc3c(-c4ccc(F)cc4)c(C)nn3c2C)c1` gave PMP22 txn inconclusive and HTT prom inh -15%.
For Cc1cccc(-n2ncc(C(=O)Nc3ccc4c(c3)OCO4)c2C2CCN(C(=O)OC(C)(C)C)CC2)c1 the results were PMP22 txn inconclusive and HTT prom inh 14%.
Screening CCOC(=O)c1ccc(N2C(=O)c3n[nH]c(-c4cccs4)c3C2c2ccc(CC)cc2)cc1 (configuration not stated) returned PMP22 txn inconclusive and HTT prom inh 20µM*.
COc1cccc(/C=C/c2nc(C#N)c(N3CCC(C(N)=O)CC3)o2)c1 was read as PMP22 txn 8% and HTT prom inh -1%.
CCc1ccc(S(=O)(=O)c2nnn3c2nc(NC2CCCCCC2)c2sccc23)cc1 was read as PMP22 txn -28% and HTT prom inh -9%.
For CCNC(=O)Cc1ccc(NC(=O)N2CCCCc3ccccc32)cc1 the results were PMP22 txn 0% and HTT prom inh -3%.
Screening O=C(NCC1CCCO1)c1c[nH]c2ccc(S(=O)(=O)Nc3cccc(C(F)(F)F)c3)cc2c1=O (configuration not stated) returned PMP22 txn -36% and HTT prom inh -8%.
COCCn1c(SCC(=O)Nc2cccc(C)c2C)nc2c(oc3ccccc32)c1=O was read as PMP22 txn -27% and HTT prom inh -10%.
`CCOC(=O)Cn1nc(C)c(NC(=O)COc2ccccc2)c1C` gave PMP22 txn 0% and HTT prom inh -5%.
`Cc1nc(C)c(-c2ccc(SCC(=O)Nc3ccc(Cl)c(Cl)c3)nn2)s1` gave PMP22 txn -52% and HTT prom inh 18µM*.
CC(=O)N1CCc2cc(Br)cc(S(=O)(=O)N3CCC(C(=O)Nc4cccc(C)c4C)CC3)c21 was read as PMP22 txn -27% and HTT prom inh 8%.
Screening Cc1ccc(S(=O)(=O)C(CNC(=O)COc2ccc(Cl)cc2)c2ccco2)cc1 (configuration not stated) returned PMP22 txn -24% and HTT prom inh inconclusive.
For CC(=O)c1c(C)n(-c2cccc(Cl)c2)c2ccc(OC(=O)c3ccccc3)cc12 the results were PMP22 txn inconclusive and HTT prom inh -7%.
`COC(=O)c1ccc(NC(=O)C(=O)NCCc2csc(-c3ccc(F)cc3)n2)cc1` gave PMP22 txn -18% and HTT prom inh -20%.
For CCCCOc1ccccc1C1CC(=O)Nc2cc(OC)c(OC)cc21 (configuration not stated) the results were PMP22 txn -3% and HTT prom inh -26%.
COc1ccc(/C=C/c2nc(C#N)c(NCc3ccc(F)cc3)o2)cc1OC was read as PMP22 txn -26% and HTT prom inh -12%.
CCOc1ccc(-c2cn3c(n2)sc2cc(C(=O)NC4CCCc5ccccc54)ccc23)cc1 (configuration not stated) was read as PMP22 txn inconclusive and HTT prom inh -13%.
`Cc1cccc(NC(=O)C2CCCN(S(=O)(=O)c3cccc4nonc34)C2)c1C` (configuration not stated) gave PMP22 txn -4% and HTT prom inh -19%.
Screening C[C@]12CC[C@@H]3c4ccc(O)cc4CC[C@H]3[C@H]1[C@@H](O)[C@@H](O)[C@H]2O returned HTT prom inh 15%.
`C=CC(=O)Nc1cc(NC(=O)c2ccc(C)c(NC(=O)c3ccno3)c2)cc(C(F)(F)F)c1` gave HTT prom inh inconclusive.
N#Cc1c(C(F)(F)F)cc(-c2cccs2)nc1SCC(=O)Nc1cccc(Cl)c1 was read as PMP22 txn -13% and HTT prom inh -3%.

Fetched by structure from above (2):
COc1ccc(/C=C/c2nc(C#N)c(NCc3ccc(F)cc3)o2)cc1OC was read as PMP22 txn -26% and HTT prom inh -12%.
N#Cc1c(C(F)(F)F)cc(-c2cccs2)nc1SCC(=O)Nc1cccc(Cl)c1 was read as PMP22 txn -13% and HTT prom inh -3%.

High-throughput results: PubChem, National Center for Advancing Translational Sciences (NCATS)

These rows are one share of the data, so the mix of outcomes need not match the whole.
